Assay outcomes as filed in PubChem BioAssay.
KCNQ2 pot = KCNQ2 (rat) channel potentiation; CHO-K1 KCNQ2, FluxOR thallium flux fluorescence; stronger effect = higher value; B-score at 10 µM; actives 0.54% (n = 310,000); AID 2239;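 active = fluorescence ratio B-score at least 3 SD of library B-scores, with initial fluorescence B-score within 3 SD, cut at about 5.3 in these data; same plate scores as AID 2156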;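 note: B-score of peak minus minimum over baseline fluorescence ratio after K+ and Tl+ stimulus; positive B-score means potentiation of KCNQ2 with more thallium influx and brighter signal; only the inactives scoring about 0 or higher are listed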
Target sequence (O88943 whole entry, looked up): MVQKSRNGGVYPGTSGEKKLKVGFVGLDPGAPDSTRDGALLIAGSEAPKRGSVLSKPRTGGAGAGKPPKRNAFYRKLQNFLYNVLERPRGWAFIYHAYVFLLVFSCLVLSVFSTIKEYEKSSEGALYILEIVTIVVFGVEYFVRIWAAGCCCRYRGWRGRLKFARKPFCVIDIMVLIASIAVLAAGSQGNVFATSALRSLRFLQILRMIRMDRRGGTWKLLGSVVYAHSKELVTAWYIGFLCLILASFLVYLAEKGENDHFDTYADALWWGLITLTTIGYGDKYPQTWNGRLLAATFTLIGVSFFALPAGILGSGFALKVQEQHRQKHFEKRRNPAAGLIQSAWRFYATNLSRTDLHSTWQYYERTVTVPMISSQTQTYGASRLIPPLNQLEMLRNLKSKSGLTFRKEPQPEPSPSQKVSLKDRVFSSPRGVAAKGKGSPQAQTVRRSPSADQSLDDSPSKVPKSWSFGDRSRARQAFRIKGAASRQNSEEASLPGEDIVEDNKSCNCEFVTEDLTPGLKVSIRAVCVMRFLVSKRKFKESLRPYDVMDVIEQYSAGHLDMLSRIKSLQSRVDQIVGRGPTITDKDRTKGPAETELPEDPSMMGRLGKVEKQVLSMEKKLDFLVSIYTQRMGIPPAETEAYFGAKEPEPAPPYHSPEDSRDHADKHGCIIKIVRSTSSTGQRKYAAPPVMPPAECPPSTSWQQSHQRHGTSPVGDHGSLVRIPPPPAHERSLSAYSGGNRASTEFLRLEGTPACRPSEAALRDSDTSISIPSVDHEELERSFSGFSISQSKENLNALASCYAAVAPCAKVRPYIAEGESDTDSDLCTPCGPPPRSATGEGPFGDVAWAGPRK
KCNQ2 pot baseline = further read-out of KCNQ2 pot, marked with its call; B-score; compound at 10 µM; measured here: initial fluorescence intensity artifact check;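 brightness before thallium and not channel activity; 0 = typical well and far values either way flag optical interference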
* hit, by the source's call. An excerpt, so the mix of outcomes need not match the whole.

molecule | KCNQ2 pot | KCNQ2 pot baseline
COc1cc(C(=O)NCC2CCCO2)ccc1OCc1ccc(Cl)cc1Cl (stereo unspecified) | 0.47 | -1.2
Cc1ccc(C(=O)Nc2ccc3ccccc3n2)cc1 | 0.02 | -0.42
O=C(NCc1ccccc1Cl)c1ccc(NC2=NC3CS(=O)(=O)CC3S2)cc1 (stereo unspecified) | 0.57 | -0.68
CC(CC(=O)O)CC1=NS(=O)(=O)c2ccccc2N1 (stereo unspecified) | 0.89 | -0.01
Cc1cc(C)c(NC(=O)C2CC3CCC2C3)c(C)c1 (stereo unspecified) | 28* | -0.52*
CCCCn1c(N)c(N(CCOC)C(=O)CSc2nc3ccc(C)cc3[nH]2)c(=O)[nH]c1=O | 0.05 | -0.15
O=C(NNS(=O)(=O)c1ccccc1)c1ccc([N+](=O)[O-])cc1 | 0.91 | -0.1
CC(=O)Nc1ccc2nc(NC(=O)COc3ccccc3)sc2c1 | 0.67 | -0.07
COc1ccc(S(=O)(=O)N2CCCC(C(=O)NCc3ccccn3)C2)cc1Cl (stereo unspecified) | 1.1 | -0.38
COc1ccc(CCNC(=O)c2ccc(CS(=O)(=O)Cc3cccc(C)c3)o2)cc1OC | 0.31 | -0.91

Among those listed so far, 3 contain an aryl methoxy group.
molecule | KCNQ2 pot | KCNQ2 pot baseline
COc1cc(C(=O)NCC2CCCO2)ccc1OCc1ccc(Cl)cc1Cl (stereo unspecified) | 0.47 | -1.2
COc1ccc(S(=O)(=O)N2CCCC(C(=O)NCc3ccccn3)C2)cc1Cl (stereo unspecified) | 1.1 | -0.38
COc1ccc(CCNC(=O)c2ccc(CS(=O)(=O)Cc3cccc(C)c3)o2)cc1OC | 0.31 | -0.91

(continued)
molecule | KCNQ2 pot | KCNQ2 pot baseline
CC(C)c1nc2ccc(Br)cn2c1NC1CCCC1 | 0.37 | -2
O=C(Nc1ccccc1)c1ccc(S(=O)(=O)NCc2cccnc2)cc1 | 1 | -0.04
Cc1ccc(C)c(OCCCC(=O)Nc2ccccc2C(N)=O)c1 | 0.78 | 0.06
C/C=C(/C)C(=O)O[C@@H]1c2c(ccc3ccc(=O)oc23)O[C@@H]1C(C)(C)OC(C)=O | 0.29 | 1.3
COc1cc(NC(=S)N2CCCC(C)C2)cc(OC)c1OC (stereo unspecified) | 1.2 | 0.01
CC1(C)CC(=O)C=C(N2CCNCC2)C1 | 1.3 | 5.7
CCNc1cc(Nc2c(C)n(C)n(-c3ccccc3)c2=O)c([N+](=O)[O-])c2nonc12 | 0.77 | 1.2
CCN1C(=O)CC(NC2CCN(C(=O)c3ccc(F)cc3)CC2)C1=O (stereo unspecified) | 0.86 | 0.03
COC(=O)c1ccccc1NC(=O)CSc1nnc(-c2cccc(NC(C)=O)c2)n1C | 0.47 | 0
Cc1c(C(N)=O)c(-c2ccccc2)nn1-c1ccccc1 | 0.5 | -0.13
c1ccc(-c2nnc(SCc3nc4ccccc4[nH]3)o2)cc1 | 1.4 | -0.37
CCCCSCCCNC(=O)Nc1cccc(OC)c1 | 8.6* | -0.87*
CCOC(=O)C1=C(C)N=c2s/c(=C/c3cccc(OCC(=O)O)c3)c(=O)n2C1c1ccc(F)cc1 (stereo unspecified) | 0.96 | -0.93
CCOc1cc(C#N)c(NC(=O)c2ccnn2C)cc1OCC | 0.78 | 0.73
Cn1nnnc1SCC(=O)Nc1ccccc1-c1ccccc1 | 0.11 | -0.05
CS(=O)(=O)NCCNc1ccc(Cl)cc1[N+](=O)[O-] | 0.8 | 1.9
O=c1c(Br)c(N2CCCCC2)cnn1-c1ccccc1 | 0.08 | -0.09
Cn1c(=O)c([N+](=O)[O-])c(NCc2ccc3c(c2)OCO3)c2ccccc21 | 0.89 | 0.33
O=C(c1ccc(N2CCN(CCO)CC2)nc1)N1CCOCC1 | 0.94 | 0.68
CN(C)c1ccc(C2CC(=O)NC3=C2C(=O)CC(C)(C)C3)cc1 (stereo unspecified) | 0.19 | 1.1
COCCN(CCOC)C(=O)c1ccc(NS(=O)(=O)c2ccc3c(c2)OCCO3)cc1 | 0.85 | 0.32
COc1cccc(CNC(=O)C2CCCN(S(C)(=O)=O)C2)c1 (stereo unspecified) | 0.52 | -1.4
CC(=O)Nc1ccc(NC(=S)NC(=O)c2cc3ccccc3o2)cc1 | 1.7 | 1.2
O=C(Nc1ccc(Oc2cccc(C(F)(F)F)c2)nc1)c1ccccc1 | 1.1 | 1.8
Cc1cc(SCC(=O)N(C)C2CCS(=O)(=O)C2)nc2c(C)cccc12 (stereo unspecified) | 0.96 | 0.04
C/C(CC(=O)Nc1ccccc1Br)=N\NC(=O)C(=O)N1CCCC1 | 1.4 | 0.09
O=C(Nc1nc2c(s1)CCc1ccccc1-2)c1ccco1 | 0.82 | 0.33
O=[N+]([O-])c1cccc(CN2C[C@@]34C=C[C@@H](C[C@@H]3S2(=O)=O)O4)c1 | 0.13 | 1.8
Cc1cccc(CN2CCN(CC(=O)O)C2=O)c1 | 0.01 | -0.92
O=C(N/N=C/c1ccco1)c1cccc(NC(=O)c2cccc(Cl)c2)c1 | 0.43 | 0.01
Cc1onc(-c2c(Cl)cccc2Cl)c1C(=O)NC(=S)N1CCOCC1 | 0.01 | 2.2
CCC(C(=O)OCCN(CC)CC)c1ccccc1 (stereo unspecified) | 0.32 | -1.9
Cc1nn(CC(=O)N2CCCC2)c(=O)c2cc3cc(F)ccc3n12 | 2.1 | -1
CS(=O)(=O)N(CC(=O)NCc1ccc2c(c1)OCO2)c1ccccc1 | 2.3 | -0.73
O=C(COC(=O)/C=C/c1ccco1)Nc1ccccc1 | 0.87 | 2.1
Cc1ccc(C2(c3ccc(C)cc3)CC2C(=O)NCc2cccnc2)cc1 (stereo unspecified) | 0.2 | 2.4
S=c1[nH]nc(-c2ccncc2)n1/N=C/C=C/c1ccccc1 | 0.89 | -1.5
CCCc1cc(=O)oc2cc(C)c3c(C)coc3c12 | 0.37 | -0.03
CCOc1ccc(/C=N/NC(=O)C(=O)N2CCCCCC2)c2ccccc12 | 3.4 | -0.05
O=C(NCc1ccco1)C1CC(=O)N(c2cccc(Cl)c2)C1 (stereo unspecified) | 0.99 | -0.41
COc1ccc(/C(N)=N/OC(=O)c2ccco2)cc1 | 1.2 | 0.02
COC(=O)c1c(-n2cnnn2)sc(C)c1C | 0.53 | -0.27
CCOC(=O)c1c(NC(=O)CCS(=O)(=O)c2ccccc2)sc2c1CC(C)(C)NC2(C)C | 0.12 | 1.2
CCS(=O)(=O)N1Cc2ccccc2CC1C(=O)Nc1nnc(SCc2ccc(F)cc2)s1 (stereo unspecified) | 1.3 | -2
C/C(=N/NC(=O)c1ccoc1C)c1cccc(NC(=O)C2CC2)c1 | 0.17 | 1
O=C(CC1(O)C(=O)N(CCc2ccccc2)c2ccccc21)c1ccco1 (stereo unspecified) | 2.6 | -2.4
O=Cc1cc([N+](=O)[O-])ccc1N1CCOCC1 | 1 | -0.02
COc1ccccc1C(=O)NNC(=O)c1csc(N2CCOCC2)n1 | 0.32 | -0.95
O=C(OCc1cccc(F)c1)c1ccc2c(=O)n3c(nc2c1)CCC3 | 2.2 | -1.3
COc1ccc(C2(CNC(=O)c3ccc(Br)o3)CCOCC2)cc1 | 0.47 | -0.02

Whole records, looked up by structure:
CS(=O)(=O)N(CC(=O)NCc1ccc2c(c1)OCO2)c1ccccc1 across the screens: KCNQ2 pot: 2.3; KCNQ2 pot baseline: -0.73
O=c1c(Br)c(N2CCCCC2)cnn1-c1ccccc1 across the screens: KCNQ2 pot: 0.08; KCNQ2 pot baseline: -0.09

More compounds:
molecule | KCNQ2 pot | KCNQ2 pot baseline
Cc1ccc(S(=O)(=O)c2nnn3c2nc(N2CCN(c4ccccn4)CC2)c2ccccc23)cc1C | 0.04 | -0.01
COc1ccc(S(=O)(=O)N/N=C(/C)c2ccco2)cc1 | 0.66 | 0.75
CCSc1nnc(-c2cccs2)o1 | 0.84 | 0.08
C/C=C/C(=O)Nc1cccc(C2=NOC3(C2)C[C@@H](C(N)=O)N(C(=O)C(c2ccccc2)c2ccccc2)C3)c1 (stereo partly specified) | 0.5 | 3.2
CCOC(=O)c1ccc(-n2c(O)c(/C=N/NC(=O)C3COc4ccccc4O3)c3ccccc3c2=O)cc1 (stereo unspecified) | 0.41 | -0.91
COc1ccc(NC2=NCC(=O)N2c2ccccc2F)cc1 | 0.17 | -0.32
COc1cccc(/C=C2\SC(=O)N(CCC(=O)NNC(=O)c3ccccc3Cl)C2=O)c1 | 0.2 | 1.6
CCOC(=O)Cc1nnc(NC(=O)COc2ccc(C)cc2)s1 | 0.4 | -0.13
Cc1ccc(NC(=S)NCC2CCCO2)c(OC(F)F)c1 (stereo unspecified) | 2.2 | 0.97
O=C(O)c1ccc(Nc2ncnc3c2cnn3Cc2ccccc2)cc1 | 3.9 | 0.99
O=C(CSc1nc2ccccc2c(=O)[nH]1)Nc1ccc(N2CCOCC2)cc1 | 0.18 | -2.5
c1ccc(CSc2ccc(-c3cccnc3)nn2)cc1 | 0.76 | -0.68
CCC(=O)Nc1ccccc1Oc1ccccc1 | 0.4 | -0.26
Cc1oc2ccc(OCc3ccc(F)cc3)cc2c1C(=O)O | 1.9 | -1.2
C[C@H](NC(N)=O)C(=O)N1CCN(S(=O)(=O)c2ccc3ccccc3c2)CC1 | 1.3 | -1
Cc1ccc(OCC(=O)N/N=C2\CC(=O)CC(C)(C)C2)c(Br)c1 | 0.29 | 1.8
CS(=O)(=O)CC(=O)Nc1ccc2nc3n(c(=O)c2c1)CCCCC3 | 0.09 | 2.5
CN=c1scc(C)n1/N=C/c1cc(Br)c(O)c(OC)c1 | 0.42 | -0.62
CCOc1ccc(CNC(=O)Nc2ccccc2)cc1 | 2 | 0.34
COc1ccc(CC(=O)Nc2ccc3nc(SC)sc3c2)cc1OC | 0.75 | 0.11
S=c1[nH]cc(-c2ccccc2)n1-c1cccc(Cl)c1 | 0.73 | -0.24
Cc1ccc(-c2cc(C(=O)O)c3cc(Br)ccc3n2)o1 | 1.7 | 1.8
CC[N+](CC)(CC=C(C)C)CC(=O)OC | 1.4 | -2.2
CCn1c(SCC(=O)Nc2nccs2)nnc1-c1ccc(S(=O)(=O)N2CCCCCC2)cc1 | 1.4 | -1.9
Cc1c(Br)c([N+](=O)[O-])nn1CC(=O)c1ccccc1 | 1 | 0.77
CC1(C)CC(=O)C/C(=N\NC(=O)CCc2ccc(S(=O)(=O)N3CCOCC3)cc2)C1 | 0.02 | 0.05
CSc1ccccc1NC(=O)c1cccnc1 | 0.28 | 0.8
O=C(CCC1CCCCC1)Nc1ccc(S(=O)(=O)Nc2nccs2)cc1 | 0.37 | 0.2
O=C(NCC1CCCO1)c1ccc(S(=O)(=O)N2CCCCC2)cc1 (stereo unspecified) | 0.17 | -1.8
COc1cccc2cc(C(=O)N3CCN(C/C=C/c4ccccc4)CC3)c(=O)oc12 | 2.2 | -0.72
Cc1cccc(N2C(=NC(=O)c3ccccc3)SC3CS(=O)(=O)CC32)c1 (stereo unspecified) | 0.62 | -2.1
Cc1ccnc(NC(=O)c2oc3ccccc3c2C)c1 | 0.03 | 1.6
COc1ccc(-c2cc(C(=O)NC3CCCC3)no2)cc1 | 0.18 | -0.39
COCCNC(=O)c1n[nH]c2ccccc12 | 1.2 | 1
O=S(=O)(NCC1CCCO1)c1ccc(S(=O)(=O)N(Cc2ccc(F)cc2)Cc2ccco2)cc1 (stereo unspecified) | 0.4 | 0.94
Cc1ccccc1OCC(=O)Nc1ccc(N2CCN(C)CC2)c(Cl)c1 | 1.6 | 0.99
Cc1[nH][nH]c(=O)c1C(c1ccc(Cl)cc1)c1c(C)[nH][nH]c1=O | 0.02 | -0.13
Cc1cc(=O)oc2ccc(OCC(=O)O)cc12 | 1.5 | -0.34
Cn1cccc1C(=O)OCC(=O)Nc1ccc2c(c1)CCC2 | 1.8 | 0.01
Cc1cc(C)c(OCC(=O)OCC(=O)NC2CCC(C)CC2)c(C)c1 (stereo unspecified) | 0.22 | 0.47
CCOC(=O)c1c(C)[nH]c(C)c1C(=O)CN1C(=O)NC(CC(C)C)C1=O (stereo unspecified) | 2.7 | 0.7
Cc1cccc(NC(=O)C2CCN(C(=O)NCc3ccccc3)CC2)c1C | 0.64 | -1.1
CS(=O)(=O)N(CC(=O)NCc1ccco1)c1ccccc1Cl | 0.61 | 1.1
COc1ccc(OCC(=O)NNC(=O)CCc2ccccc2)cc1 | 0.4 | -0.84
Cc1ccc(S(=O)(=O)NC(=O)Nc2cc(C(C)(C)C)on2)cc1 | 0.54 | 2.1
CN(C)CCCN(C(=O)C1COc2ccccc2O1)c1nc2ccc(F)cc2s1 (stereo unspecified) | 1.7 | -0.91
Cc1cc(C)c(S(=O)(=O)c2ccccc2C)c(Cl)n1 | 0.36 | 1.2
C=CCn1c(-c2sccc2C)n[nH]c1=S | 0.6 | -0.06
Nc1nc(NCc2ccccc2)nc(Nc2cccc(F)c2)c1[N+](=O)[O-] | 0.16 | -0.98
O=C(CCNC(=O)N1CC(=O)Nc2ccccc21)NCc1ccc(F)cc1 | 0.8 | -1.3
CCOC(=O)N1CCN(C(=O)c2ccc3c(=O)n(Cc4ccc(Cl)cc4)c(=S)[nH]c3c2)CC1 | 0.9 | 0.68
